Screening results deposited in PubChem BioAssay by National Center for Advancing Translational Sciences (NCATS).
D2 agonist: agonists of human D2 dopamine receptor (beta-arrestin). P14416. DiscoveRx PathHunter D2 beta-arrestin, luminescence, 90 min; 100% = 57 uM dopamine signal. activation, % (test concentration not listed). 0.084% of 360,000 active. AID 624465; in the data active = activation above about 40%; inconclusive = about 15% to 40%; inactive = below about 15%; further: compound concentration not given in the record; the text of the record calls up to 30% inactive
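Agonist mode: compounds alone added to overnight-plated D2 PathHunter cells for 90 min at 37 C, with 57 uM final dopamine (EC100) defining full response. Beta-arrestin recruitment detected by chemiluminescent reagent, read after 1 h at ambient temperature.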
D2 PAM: potentiates the human D2 dopamine receptor allosterically; P14416; potentiation, % (no concentration beside the values); AID 624464; DiscoveRx D2 beta-arrestin cells, luminescence, 90 min; 100% = 57 uM dopamine signal; 0.23% of 360,000 active; active = potentiation of 50% or more; inconclusive = 30% to 50%; inactive = 30% or less;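 further: compound concentration not given in the record; tested on top of an EC20 dose of dopamine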
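D2 cells co-treated with compound plus 50 nM dopamine (EC20) for 90 min at 37 deg C to detect potentiation. Beta-arrestin recruitment was read as enzyme-fragment luminescence after 1 h at ambient temperature. Full response was set by 57 uM dopamine.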
Six1-Eya2 inh: blocks human Six1 binding to Eya2; 0.56% of 360,000 active; Q15475+O00167; AlphaScreen GST-Six1/His-Eya2 binding, biochemical; active compounds read low; control for the full effect not named in the record; activity change, % (no concentration beside the values); AID 651725; in the data active = activity change below about -65%; inconclusive = about -30% to -65%; inactive = above about -30%; further: on the % scale 0 is the no-effect control and ±100 the full control effect
Target sequence (O00167 whole entry, looked up): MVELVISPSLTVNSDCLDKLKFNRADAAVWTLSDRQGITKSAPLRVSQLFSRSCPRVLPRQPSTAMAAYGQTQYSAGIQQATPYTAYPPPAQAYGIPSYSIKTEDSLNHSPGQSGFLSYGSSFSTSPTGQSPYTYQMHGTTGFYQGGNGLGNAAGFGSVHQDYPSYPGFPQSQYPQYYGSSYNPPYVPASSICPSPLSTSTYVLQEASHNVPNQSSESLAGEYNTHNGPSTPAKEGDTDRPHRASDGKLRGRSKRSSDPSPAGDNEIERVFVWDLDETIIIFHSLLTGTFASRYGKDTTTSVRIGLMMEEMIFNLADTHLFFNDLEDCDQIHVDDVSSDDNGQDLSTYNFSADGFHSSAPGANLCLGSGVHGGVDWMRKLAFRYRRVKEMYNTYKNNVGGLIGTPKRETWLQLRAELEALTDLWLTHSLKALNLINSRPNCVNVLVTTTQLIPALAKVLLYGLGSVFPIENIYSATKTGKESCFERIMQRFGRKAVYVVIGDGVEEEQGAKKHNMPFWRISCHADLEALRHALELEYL
Target sequence (Q15475 whole entry, looked up): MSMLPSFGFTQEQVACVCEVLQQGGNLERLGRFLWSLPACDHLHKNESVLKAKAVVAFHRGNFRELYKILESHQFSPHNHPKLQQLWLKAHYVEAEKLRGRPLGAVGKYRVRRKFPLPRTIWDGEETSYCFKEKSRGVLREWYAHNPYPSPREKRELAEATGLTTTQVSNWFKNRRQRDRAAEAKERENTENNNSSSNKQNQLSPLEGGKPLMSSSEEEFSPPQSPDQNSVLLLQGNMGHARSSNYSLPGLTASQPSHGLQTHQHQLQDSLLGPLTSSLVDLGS
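Compounds are tested against tagged Six1 and Eya2 proteins bridged by glutathione donor and nickel acceptor beads; after a one-hour incubation at 37 °C without light, AlphaScreen emission is recorded.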
TRPML1 blocker: human mucolipin-1 channel inhibition | Q9GZU1 | TRPML1-inducible cells, Ca2+ dye fluorescence, FDSS; active compounds read low; inhibition of EC80 agonist-evoked calcium signal | activity change, negative = inhibition, % (test concentration not listed) | 0.02% of 390,000 active | AID 624415; in the data active means activity change below about -50%; inconclusive means about -30% to -50%; inactive means above about -30%;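 further: stimulus is agonist 54-4 at its EC80 concentration; on the % scale 0 is the no-effect control and ±100 the full control effect; compound concentration not given in the record; the text of the record puts the active cut at -80%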
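Tet-induced TRPML1-DL cells loaded with Ca8 no-wash calcium dye were read kinetically on FDSS. Compound addition was followed by EC80 agonist 54-4 (4 uM final); inhibition was read over 110 s.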
TRPML1 ag: agonists of human TRPML1 channel | TRPML1-expressing cells, Ca2+ dye fluorescence, FDSS; host cell line not named in the record; reference of the full effect not given here | activation, % (concentration not given with the values) | 0.12% of 410,000 active; in the data active = activation above about 50%; inconclusive = about 30% to 50%; inactive = below about 30%; further: 0% is about no effect; the text of the record puts the active cut at 80%
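Tet-induced TRPML1-DL cells, 1,500 per well, cultured overnight, were loaded with a no-wash Ca2+ dye for 45–90 min. Calcium fluorescence was recorded on the FDSS for 110 s after compound addition, before the EC80 agonist (4 uM 54-4) was added.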
PINK1 modulator: PINK1 expression modulation | 0.2% of 410,000 active | Potency, µM (top dose mostly 76.6 µM), without a hit: at the highest dose activation (PINK1 increase), hits mostly activators | AID 624263 | PINK1 immunofluorescence, high-content cytometry, 24 h; active = well fitted activation curve with a large enough effect; inconclusive = small, poorly fitted or top-dose-only effect; inactive = flat fitted curve, though single readings scatter; cell line not stated here;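 further: potency means the concentration at half of the fitted maximal effect; % of control where 0% means no effect; nearly all actives have a fitted effect of over 65% in size; a mitochondrial uncoupler was the plate control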
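PINK1 protein, normally rapidly degraded, was detected by immunofluorescence after 24 hour compound treatment of a stable cell line. Titration data (5 concentrations) came from laser-scanning cytometry, with CCCP-treated wells as controls.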
* hit, by the source's call; u = inconclusive; x = not tested or not shown; & = joins results of further samples; [ ] = dose if it differs, or a comment.

Compound | D2 agonist | D2 PAM | Six1-Eya2 inh | TRPML1 blocker | TRPML1 ag | PINK1 modulator
Cc1cc(OCC(=O)NNC(=S)NCC2CCCO2)cc(C)c1Cl (stereo unspecified) | -3.7 | -29.9 | -10.0 | 29.7 | 0.8 | 3.8%
CCOC(=O)c1nccnc1C(=O)Nc1ccc(C(F)(F)F)cc1 | -4.2 | -3.1 | 2.6 | -23.2 | 0.4 | 2.2%
COc1ccc(S(=O)(=O)N2CCOCC2)cc1NS(=O)(=O)c1ccc(F)c(F)c1 | 1.2 | 4.2 | 6.7 | -1.8 | 1.0 | -0.5%
Cc1ccc(-c2cc(C(=O)NCCCN3CCOCC3)c3ccc(Cl)c(C)c3n2)cc1 | -0.6 | -19.5 | -0.8 | 14.1 | 0.9 | -0.6%
O=C(CSc1ccc(Cl)cc1)Nc1ccccc1Oc1ccccc1 | -3.3 | -12.2 | 0.4 | -1.1 | 0.9 | 9.3%
Fc1ccccc1OCCCN1CCOCC1 | -2.2 | -9.6 | 0.6 | 18.3 | 0.4 | 6.4%[38.3 µM]
NC(=O)c1cccc2c3c([nH]c12)CCCC3 | -3.1 | -17.3 | -8.5 | 17.0 | -0.7 | 3.3%
O=C(Nc1cccc(C(F)(F)F)c1)C12CC3CC(CC(C3)C1)C2 | 0.0 | -18.7 | -10.7 | 48.0 | 2.8 | 3.5%[38.3 µM]
CCN(CC(=O)Nc1cc(Cl)ccc1C)C(=O)c1oc2ccc(OC)cc2c1C | -0.6 | -19.1 | -2.3 | -2.7 | 0.8 | -2.4%
O=C(N/N=C/c1cc(Br)c(Br)o1)C(O)c1ccccc1 (stereo unspecified) | 0.1 | -3.5 | -11.8 | -12.2 | 0.9 | 0.1%
CCOc1ccc2nc(SCC#N)c(C#N)cc2c1 | 1.7 | 2.2 | -0.2 | -3.6 | 2.9 | -0.5%
[N-]=[N+]=NC[C@H](c1ccccc1)N1CCN(Cc2ccccc2)CCC1=O | 1.9 | -21.8 | 3.0 | -17.6 | -0.7 | 0.4%
COc1ccc(/C=C/C(=O)OCC(=O)Nc2ccc(N3CCOCC3)cc2)cc1OC | -3.8 | -7.9 | 2.0 | -6.0 | -0.8 | 4.3%
O=C(NCCc1ccccc1)c1ccc(Cl)cc1[N+](=O)[O-] | 4.3 | 3.0 | 2.5 | -15.9 | -0.5 | 5.4%
CCC1=Nc2cc(C(=O)NC3CCCC3)ccc2Sc2ccc(Br)cc21 | x | x | x | 36.5 | 1.1 | 5.4%
Cc1ccc(/C=C/C(=O)O)cc1S(=O)(=O)NCc1cccnc1 | -2.0 | -8.5 | 3.7 | 11.0 | 0.2 | 3.1%
CS(=O)(=O)N1CCc2nc(-c3ccccc3)sc2C1 | -2.3 | -6.5 | 1.8 | 1.7 | -1.1 | -0.4%
NNc1ccc2nncn2n1 | -4.5 | -17.6 | -0.5 | -8.6 | -0.3 | 1.0%
Cc1ccc(NC(=O)CN(C)C(=O)COc2ncnc3ccc(Br)cc23)cc1 | -3.2 | -13.8 | -3.4 | 1.6 | -0.6 | 6.6%
CCCn1cnc2c(SCc3ccccc3)nc(N)nc21 | -1.7 | -4.2 | 2.6 | 8.4 | -1.1 | 1.1%

Single entries from the results shown.
Entry of Cc1ccc(-c2cc(C(=O)NCCCN3CCOCC3)c3ccc(Cl)c(C)c3n2)cc1 under TRPML1 blocker: 14.1
Entry of Cc1ccc(/C=C/C(=O)O)cc1S(=O)(=O)NCc1cccnc1 under TRPML1 blocker: 11.0
Entry of NC(=O)c1cccc2c3c([nH]c12)CCCC3 under TRPML1 ag: -0.7
Entry of COc1ccc(S(=O)(=O)N2CCOCC2)cc1NS(=O)(=O)c1ccc(F)c(F)c1 under D2 agonist: 1.2
Entry of O=C(CSc1ccc(Cl)cc1)Nc1ccccc1Oc1ccccc1 under D2 agonist: -3.3

The listing picks up, starting two compounds before the break.
Compound | D2 agonist | D2 PAM | Six1-Eya2 inh | TRPML1 blocker | TRPML1 ag | PINK1 modulator
Cc1ccc(NC(=O)CN(C)C(=O)COc2ncnc3ccc(Br)cc23)cc1 | -3.2 | -13.8 | -3.4 | 1.6 | -0.6 | 6.6%
CCCn1cnc2c(SCc3ccccc3)nc(N)nc21 | -1.7 | -4.2 | 2.6 | 8.4 | -1.1 | 1.1%
Cc1ccc(CNC(=O)c2ccc(Nc3nc4ccccc4n4nnnc34)cc2)cc1 | x | x | x | -4.6 | 0.5 | -0.1%
O=C(NCCN1CCCCC1)Nc1ccccc1 | -0.1 | -20.1 | 5.2 | -9.6 | 1.1 | 2.5%[38.3 µM]
O=C(Nc1cccc(S(=O)(=O)Nc2ccccc2Cl)c1)c1ccc(Cl)nc1 | 2.5 | 9.6 | -22.5 | 25.4 | 0.7 | 8.6%
CN(CC(=O)Nc1ccc(F)c(F)c1F)C(=O)c1cc(-c2ccncc2)nc2ccccc12 | -1.6 | -12.7 | -1.9 | 7.8 | -0.5 | 5.9%
CC(=O)N1CCc2nc3sc(C(=O)Nc4ccc(Cl)cc4F)c(N)c3c(C(F)(F)F)c2C1 | x | x | x | -0.8 | 0.6 | u
CCNC(=O)CCSc1nnc(-c2ccncc2)o1 | -6.3 | -2.7 | 13.1 | 29.4 | 0.2 | 1.1%
O=C(NCCNc1ccc([N+](=O)[O-])cc1)c1cccs1 | 1.5 | -6.3 | -17.1 | 4.6 | -0.2 | -0.4%
CC1C(=O)C(C)C(c2cccc(Br)c2)NC1c1cccc(Br)c1 (stereo unspecified) | -6.6 | -5.3 | -11.1 | -6.7 | 2.7 | 4.1%
O=C(Nc1ccc2c(c1)OCCO2)c1c(F)c(F)c(F)c(F)c1F | -1.4 | 0.7 | 5.2 | 21.0 | 1.4 | -1.6%
CCN(CC)c1ccc(NC(=O)c2ccc3c(c2)OCO3)cc1 | -2.6 | -4.2 | -27.3 | 1.1 | 0.7 | 1.0%
CCOC(=O)C1=C(C)Nc2ccccc2N=C1NC(=O)c1ccc(Cl)c(S(=O)(=O)N2CCCC2)c1 | 1.5 | -4.6 | -11.2 | -0.2 | 0.8 | 1.7%
Cn1c(=O)c2[nH]c(N3CCN(c4ccccc4)CC3)nc2n(C)c1=O | -2.0 | -3.5 | 3.8 | 19.6 | 1.9 | 2.6%
CCC1(C)OC(=O)NN(c2ccc(C)cc2)C1(C)O (stereo unspecified) | -4.7 | -17.7 | -0.6 | -5.4 | -0.5 | 1.4%
Cc1csc(NC(=O)CCC(=O)N(CC(=O)NC2CCCC2)c2ccccc2)n1 | 0.2 | -4.8 | 1.6 | -8.8 | 0.2 | -0.5%
COc1cc(/C=C2\N=C(c3c(-c4ccccc4)noc3C)OC2=O)ccc1OC(C)=O | 3.6 | 6.9 | -1.5 | 3.9 | -0.2 | 5.0%
CCOC(=O)c1sc(N(Cc2ccccc2)C(=O)CN2C(=O)CN(C)C2=O)nc1C | -1.9 | -9.8 | -1.1 | 3.5 | -0.3 | 3.0%
N#C/C(=C(\O)c1ccco1)c1ccccn1 | 1.2 | -2.0 | -16.0 | 2.6 | 0.2 | 0.0%
COc1ccc2cc(CCNC(=O)c3ccc(S(=O)(=O)N4CCOCC4)cc3)c(=O)[nH]c2c1 | 0.0 | -1.2 | -0.1 | 1.6 | -0.6 | -1.2%
OC(CCN1CCC2CCC(C2)C1)c1ccc(Br)cc1 (stereo unspecified) | -5.2 | -8.6 | 10.3 | -17.3 | 1.2 | -0.3%
COc1cccc(NS(=O)(=O)c2ccc3[nH]cc(C(=O)N4CCCCCC4)c(=O)c3c2)c1 | x | x | x | 15.7 | -0.7 | -0.1%
O=C(CCC(=O)c1cccs1)NCc1cccc(Cl)c1 | -3.8 | -21.8 | 2.7 | -1.8 | -0.6 | 0.9%
CCN(c1ccccc1)S(=O)(=O)c1nnc(NC(=O)C(C)(C)C)s1 | 6.8 | -32.2 | -3.6 | 3.2&-15.5 | 0.6&0.3 | -1.5%&0.2%
C=CCN(CC=C)C(=O)C(=O)c1ccn(-c2c(C)csc2C(=O)OC)c1 | -1.5 | 1.2 | 9.0 | -6.5 | -0.4 | -0.5%
C[N+](C)(C)CC/C=C1/c2ccccc2CSc2ccccc21 | -2.7 | -10.5 | -1.5 | -3.2 | -0.3 | 3.5%
Cc1cccc(C)c1NC(=O)CS(=O)CC(=O)NC1CCN(Cc2ccccc2)CC1 (stereo unspecified) | -0.9 | 0.5 | 7.8 | 22.3 | 3.0 | 0.8%
O=C(COc1ncnc2cc(Cl)ccc12)c1ccc2c(c1)OCCO2 | u | -4.1 | -1.9 | -5.7 | -0.1 | 11.4%
CCn1c(CNc2cccc(Cl)c2)nnc1SCC(=O)OC1CCCCC1 | -0.1 | -1.2 | 1.1 | 14.6 | 1.7 | 2.2%[38.3 µM]
Cc1ccc(CNC(=O)C2CCN(Cc3nc(-c4cccc(Br)c4)oc3C)CC2)cc1 | x | x | x | -0.4 | 1.1 | -0.7%
Cc1ccc(C(=O)c2nccn2C)cc1C | -3.1 | 1.4 | 1.7 | 10.3 | -0.6 | 4.1%
C[C@H](CO)NC(=O)c1nc[nH]c1C(=O)N[C@H](C)c1ccccc1 | 0.6 | x | -5.2 | x | x | 1.9%
COc1ccc(OC)c(NC(=O)c2csnn2)c1 | x | x | x | -9.9 | 0.1 | -0.5%
Nc1[nH]c(=S)nc2nc(-c3ccccc3)c(-c3ccccc3)nc12 | -3.4 | -6.7 | u | -1.2 | 0.2 | 1.2%
CC(=O)N1CCc2cc(S(=O)(=O)NCCC(=O)N3CCc4ccccc4C3)ccc21 | -1.1 | 1.7 | 6.8 | -5.0 | 0.1 | -18.4%[38.3 µM]
CCOC(=O)c1nnc(-c2ccccc2)nc1N1CC(C)OC(C)C1 (stereo unspecified) | 2.9 | -4.4 | 0.0 | -10.6 | 2.3 | 0.0%
C[C@@H]1CN([C@H](C)CO)C(=O)CCCn2nncc2CO[C@H]1CN(C)C(=O)Cc1ccccc1 | 0.7 | x | -2.1 | x | x | 0.2%
COc1cccc(CN2CCCC(C(=O)Nc3ccc(-c4cscn4)cc3)C2)c1 (stereo unspecified) | -2.4 | -38.6 | -4.6 | 4.7 | 0.3 | 3.1%
Cc1ccc(C2C=C(c3ccccc3)Nc3nc(NS(=O)(=O)c4ccc(C)cc4)nn32)cc1 (stereo unspecified) | x | x | x | -2.8 | 4.1 | 0.5%
CC[C@@H]1[C@H]2CCCC(=O)N3CC[C@@H](C[C@@H]1OC(=O)Nc1ccccc1)[C@@H]23 | 1.6 | -3.5 | -0.3 | -4.6 | -0.6&0.1 | -0.4%
COc1ccc(CN2CCN(C(=O)c3c(-c4ccccc4)noc3C)CC2)cc1F | -2.3 | -6.8 | 4.0 | -10.7 | -1.1 | 0.3%
COc1cccc(-c2nnn(CC(=O)N3CCC(C)CC3)n2)c1 | -3.6 | 16.8 | 6.2 | x | x | 2.0%
